# Source: PubChem BioAssay (National Center for Advancing Translational Sciences (NCATS))
# SmPrx2 inh – inhibitors of Schistosoma mansoni peroxiredoxin 2. S. mansoni Prx2 activity coupled to TGR/GSH (TGR is thioredoxin glutathione reductase), NADPH fluorescence loss, qHTS; some inactives read as strong as hits. Potency, µM. actives 0.07% (n = 65,000). AID 448; active means full or partial inhibition curve with a strong effect at the top dose; inconclusive means weaker partial or single-point curve; inactive means no accepted curve; also: series up to 57 µM; many of its hits are not listed in these tables
#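 Prx2 activity was followed as the loss of NADPH fluorescence (ex 365/em 450 nm), read every 30 sec for 8 min after H2O2 start. The enzyme mix (50 nM Prx2, 25 nM TGR, GSH, NADPH; pH 7.4 phosphate buffer) was incubated with compound for 15 min at room temperature first.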
# LT uptake inh – blocks cellular internalization of anthrax lethal toxin; actives 0.67% (n = 70,000); AID 912; Potency, µM (top dose mostly 40 µM), for inactives: top-dose activity change, negative = inhibition, hits mostly inhibitors; Cells, anthrax lethal toxin internalization, FRET ratio (460/530); active = well fitted falling ratio curve with the 530 nm signal flat; inconclusive = other ratio curves, or a change in one channel alone; inactive = flat curves in the ratio and both channels; the % refers to the ratio; also: % is scaled to controls: 0 for no effect and ±100 for the full control effect; nearly all actives have a fitted effect of over 50% in size; tested in ME-180 cells; beta-lactamase reporter
# Starred values were filed as active, the others as inactive; ? = inconclusive; · = no result given; & = joins results of further samples; [ ] = another dose, or the depositor's remark. Potency is read from the fitted curve at half-maximal effect. A portion of the library (hit frequency here may not be typical).
# Order of results: SmPrx2 inh | LT uptake inh
NC(=O)C1(N2CCCCC2)CCN(C(=O)CSc2nc(C(F)(F)F)cc(=O)[nH]2)CC1
→ >57 | ?
CN1C(=O)Cn2c1nc1ccccc12
→ >57 | ?
NCCSc1nc2ccccc2s1
→ >57 | -5%[8 µM]
O=S(=O)(Nc1nccs1)c1cc(Cl)ccc1Cl
→ >57 | 2%
CC(=O)C1=C(C)NC(SCC(=O)c2cc(Cl)ccc2Cl)=C(C#N)C1c1ccco1 (configuration not stated)
→ · | 10µM*
CCOC(=O)c1c(N)sc2c(NC(C)=O)cccc12
→ >57 | ·
Cc1occc1C(=O)N1CCN(S(C)(=O)=O)CC1
→ >57 | 4%
CCSC1=C(C#N)C(c2ccccc2Cl)CC(=O)N1 (configuration not stated)
→ · | -7%
CCCCS(=O)(=O)/C=C\C=C/S(=O)(=O)CCCC
→ >57 | ?
CS(=O)(=O)Nc1ccccc1C(=O)NC1CC2CCC1C2 (configuration not stated)
→ · | 10%
O=S(=O)(Nc1ncccc1O)c1ccc(Cl)cc1
→ >57 | 0%
O=C(Cc1ccccc1)N1CCN(Cc2ccccn2)CC1
→ >57 | 0%
CCn1c(C)csc1=NC(=O)c1ccccc1
→ >57 | -2%
O=C(NCc1ccco1)C(c1ccccc1)N(CC1CCCO1)C(=O)Cn1nnc2ccccc21 (configuration not stated)
→ >57 | 7%
C=C(CC1(CNP(=O)(c2ccccc2)c2ccccc2)CC1)c1ccccc1
→ >57 | 9%
CC(c1ccccc1)n1c(NCCCn2ccnc2)nc2c1c(=O)[nH]c(=O)n2C (configuration not stated)
→ >57 | -7%
COc1ccc(CCNc2c(C)c(C)nc3ncnn23)cc1
→ >57 | 0%
O=S(=O)(c1ccccc1)c1nc(-c2ccco2)oc1NCCCn1ccnc1
→ >57 | 11%
CCCc1cc(C(=O)Nc2ccc(C(C)=O)cc2)no1
→ >57 | -6%
CSc1oc(-c2ccccc2)nc1C(N)=O
→ >57 | 5%
O=C(Nc1ccccc1)c1ccc(S(=O)(=O)NCC2CCCO2)cc1 (configuration not stated)
→ >57 | -10%
COC(=O)c1cc2occc2n1CC(=O)Nc1ccc(C)cc1C
→ >57 | 1%
O=C(Cc1ccc(Br)cc1)N1CCN(c2ccccc2)CC1
→ >57 | ·
O=S(=O)(NCCc1cn2ccccc2n1)c1ccc2c(c1)OCCO2
→ >57 | 9%
O=C(Nc1cccc(C(F)(F)F)c1)N1CCC(c2nc(-c3ccc(F)cc3)no2)CC1
→ >57 | -17%
CC(=O)NCCn1c(SCC(=O)NCCC2=CCCCC2)nc2ccccc2c1=O
→ >57 | ?
COCCn1c(C(=O)N2CCCC2)cc2c1C[C@H]1CN(C(=O)c3ccccc3)[C@@](Cc3ccc(F)cc3)(C(=O)OC)[C@@H]21
→ >57 | ?
Cn1cc(S(=O)(=O)NCc2cccs2)c(=O)n(C)c1=O
→ >57 | 18%
CC(C)(C)C(=O)/C(C#N)=c1\s/c(=C\c2ccncc2)c(=O)n1CCCN1CCOCC1
→ >57 | -4%
CCn1c(N2CCN(S(=O)(=O)c3ccccc3C(F)(F)F)CC2)nc2ccccc21
→ >57 | ?
Nc1ccc(S(=O)(=O)Nc2nccs2)cc1
→ >57 | -30%
O=C(c1c[nH]c(=O)n(-c2ccccc2)c1=O)N1CCc2ccccc21
→ >57 | 2%
FC(F)Sc1ccc(Nc2ncnc3nc[nH]c23)cc1
→ >57 | ?
Cc1cc(C(=O)Nc2c(C)n(C)n(-c3ccccc3)c2=O)cs1
→ >57 | -8%
Cc1cc(C)n(C(=O)c2ccc(NC(=O)C3CC3)cc2)n1
→ >57 | 10%
CCCS(=O)(=O)N1CCCC(C(=O)NCCN(CC)c2ccccc2)C1 (configuration not stated)
→ >57 | -14%
O=C(CN1CCOc2ccccc21)NC1CCN(Cc2ccccc2)CC1
→ >57 | ?
O=C1CN(C(=O)CSc2nnc(-c3ccccc3)n2Cc2ccc3c(c2)OCO3)c2ccccc2N1
→ >57 | -7%
CCc1nnc(NC(=O)C2CCCN2S(=O)(=O)c2ccccc2)s1 (configuration not stated)
→ >57 | 2%
COc1ccc(-n2c(Cc3cccn3C)nnc2SCC(=O)Nc2ccccc2)cc1
→ >57 | 8%
CC(=O)c1ccc(NC(=O)C(C)Sc2nnnn2C)cc1 (configuration not stated)
→ >57 | 2%
CC(C)OCCCNC(=O)C1CCN(S(=O)(=O)N2CCCCC2)CC1
→ >57 | -1%
CC(C)NC(=O)c1cc2cc(Br)ccc2oc1=O
→ >57 | -2%
O=C(CSc1nnc(Cn2nnc(-c3ccccc3)n2)n1-c1ccccc1)Nc1ccc(F)cc1
→ >57 | 14%
O=C(O)C1CCCN1c1ncnc2ccccc12 (configuration not stated)
→ >57 | 4%

# Some of the entries above in a different format.
SMILES	SmPrx2 inh	LT uptake inh
FC(F)Sc1ccc(Nc2ncnc3nc[nH]c23)cc1	>57	?
Cc1cc(C(=O)Nc2c(C)n(C)n(-c3ccccc3)c2=O)cs1	>57	-8%
Cc1cc(C)n(C(=O)c2ccc(NC(=O)C3CC3)cc2)n1	>57	10%
CCCS(=O)(=O)N1CCCC(C(=O)NCCN(CC)c2ccccc2)C1 (configuration not stated)	>57	-14%
O=C(CN1CCOc2ccccc21)NC1CCN(Cc2ccccc2)CC1	>57	?

# (cont.)
# Order of results: SmPrx2 inh | LT uptake inh
Cc1ccccc1-n1c(Cn2c(=O)sc3ccccc32)nnc1SCC(N)=O
→ >57 | 4%
Cc1nc(Nc2cccc(C(F)(F)F)c2)nc2c1C(=O)CC(C)C2 (configuration not stated)
→ >57 | 1%
CCc1nnc(NC(=O)c2c(OC)cccc2OC)s1
→ >57 | -1%
CCC(=NCC1CCCO1)c1c(O)n(Cc2ccccc2)c(=O)[nH]c1=O (configuration not stated)
→ >57 | -1%
CC(=O)NC(Cc1c[nH]c2ccccc12)C(=O)NCc1ccc2c(c1)OCO2 (configuration not stated)
→ >57 | ?
CCOC(=O)c1cccc2c1-c1ccccc1/C2=N/O
→ >57 | ?
CCOc1cc(N2CCOCC2)c(OCC)cc1NC(=O)COc1cccc2cccnc12
→ >57 | ?
CC1(C)SCC(C(=O)O)N1C=O (configuration not stated)
→ · | -9%
O=C(C1CC1)N1CCCN(C(=O)C2CC2)CC1
→ · | 2%
CC(=O)NCC(=O)NC1(C(=O)NC2CCCC2)CCCCC1
→ >57 | 0%
Cc1cc(=O)oc2cc(OCC(O)CN3CCN(c4ccc(F)cc4)CC3)ccc12 (configuration not stated)
→ >57 | -4%
COc1ccc(OC)c(-n2c(O)cnc2Nc2nc(C)cc(C)n2)c1
→ · | -17%
CCc1ccc(OCc2nnc(SCCN3CCOCC3)n2C)cc1
→ >57 | -1%
Cc1nc(SCC(=O)Nc2ccc3c(c2)OCCO3)c2oc3ccccc3c2n1
→ >57 | -3%
C=C(C)COc1ccc(-c2ncncc2Oc2ccc(OC)cc2)c(O)c1
→ >57 | -23%
CN1CCN2c3ncccc3Cc3ccccc3C2C1 (configuration not stated)
→ >57 | -3%
CCCCS(=O)CC(COc1ccc(Cl)cc1)OC(=O)c1ccccc1 (configuration not stated)
→ · | 6%
COc1ccccc1CNC(=O)CCCN1C(=O)COc2ccc(C)cc21
→ >57 | 7%
Cc1ccc(NC2=CC(=O)CC(C)(C)C2)cc1C
→ >57 | -7%
c1cnc(N2CCC3(CCNCC3)CC2)nc1
→ >57 | 13%
COc1ccc(C2C(C#N)=C(/N=C/N3CCN(C)CC3)OC3=C2C(=O)CC(C)(C)C3)cc1 (configuration not stated)
→ >57 | ?
CCOC(=O)c1cnc(-n2nc(C)cc2C)nc1N(C)C
→ >57 | -2%
Cc1noc(C)c1S(=O)(=O)NCCc1ccc(S(N)(=O)=O)cc1
→ >57 | -7%
CCSc1nnc2c(n1)OC1(CCCC1)Nc1ccccc1-2
→ · | 9%
CCN(C(=O)c1cnc(N2CCN(c3ncccn3)CC2)c2ccccc12)c1cccc(Cl)c1
→ >57 | 16µM*
O=C1CC(Sc2ncccn2)C(=O)N1c1ccccc1C(F)(F)F (configuration not stated)
→ >57 | ?
COc1ccccc1N1CCN(C(c2cc3ccc(C)cc3[nH]c2=O)c2nnnn2C2CCCC2)CC1 (configuration not stated)
→ >57 | -24%
Cc1ccc(-c2nnc(-c3ccc(Br)cc3)o2)o1
→ >57 | -5%
CCCCOC(=O)CCn1[nH]c(=O)c2ccccc2c1=O
→ >57 | 8%
c1csc(-c2nc(-c3ccncc3)no2)c1
→ >57 | -14%
CN(C)c1ncc2nc(-c3ccccc3)c(=O)n(CCc3ccccc3)c2n1
→ >57 | ?
COc1ccc(N2C(=O)CC(N3CCOCC3)C2=O)cc1 (configuration not stated)
→ >57 | -7%
COc1ccc(Cn2c(C)nc3oc4cc(OC)ccc4c(=O)c3c2=O)cc1
→ >57 | -6%
CN(C)CCCc1cccnc1
→ >57 | 1%[8 µM]
Cc1oc2cc(O)ccc2c(=O)c1Oc1ccccc1
→ >57 | 8%
O=C(NCC(c1cccnc1)N1CCN(c2ccccc2)CC1)c1ccco1 (configuration not stated)
→ >57 | 5%
CC12CN3CC(C)(CN(C1)C31C(=O)N(Cc3ccccc3)c3ccccc31)C2=O (configuration not stated)
→ >57 | 12%
Cc1ccccc1/C=C\C1=NCCN1
→ >57 | -2%
O=C(CC1Oc2ccccc2NC1=O)NCCCN1CCOCC1 (configuration not stated)
→ >57 | 7%
CCN(C(=O)CSc1nc2cc(C(=O)OC)ccc2c(=O)n1Cc1ccco1)c1cccc(C)c1
→ >57 | 5%
CC1CCc2c(sc3ncn4c(SCC(=O)NCc5ccco5)nnc4c23)C1 (configuration not stated)
→ >57 | 6%
NNCCc1ccccc1
→ >57&>57 | 3%[3.58 µM]
O=C(O)CCCNS(=O)(=O)c1ccc(NCc2ccccc2)c(C(=O)O)c1
→ >57 | 2%
Cc1cc(NC(=O)COC(=O)C2CCN(C(=O)c3ccc(Cl)cc3)CC2)no1
→ >57 | ?
COC(=O)[C@@]1(Cc2ccc(F)cc2)[C@H]2c3cc(C(=O)N4CCCC4)n(C[C@H](O)CO)c3C[C@H]2CN1C(=O)c1ccccc1
→ >57 | -8%
N#Cc1ccccc1-c1ccc2ncnc(NCc3cccnc3)c2c1
→ >57 | 3%
CCCCn1c(N)c(N(CC)C(=O)c2ccc3c(c2)S(=O)(=O)c2ccccc2C3=O)c(=O)[nH]c1=O
→ >57 | 2%
O=C(Nc1ccc2nc(-c3cccs3)[nH]c2c1)c1cccs1
→ >57 | -10%
CC1=[N+]([O-])C(C)(C)CC(C)(C)c2ccccc21
→ >57 | -4%
O=C(O)C(Cc1cc2ccccc2[nH]1)N1C(=O)C2CC=C(Cl)CC2C1=O (configuration not stated)
→ >57 | 13%
CCOC(=O)c1ccccc1NC(=O)CSc1nnc(Cc2cccn2C)n1-c1ccc(F)cc1
→ >57 | 0%
CC1Cc2nc(SCC(=O)Nc3ccc(F)cc3)n(C)c(=O)c2S1 (configuration not stated)
→ >57 | 6%
c1ccc(Oc2cccc(OCCn3cncn3)c2)cc1
→ >57 | -3%
Cc1cccc(-c2nc(CSCC(=O)NCCCN3CCOCC3)c(C)o2)c1
→ >57 | 3%
Cc1ccc(Oc2ccc(-c3nc(N)nc(N)n3)cc2)cc1
→ >57 | -38%
O=C(CN1C(=O)CSC1=O)NC1CCCCC1
→ >57 | -12%
CCOC(=O)c1c(C)c(C(=O)NCc2cccnc2)c(C)n1CC
→ >57 | -6%
COC(=O)c1ccc(C(=O)OC)c(NC(=O)CSc2nc(-c3ccco3)cc(C(F)(F)F)n2)c1
→ >57 | 13%
CCC(C)NC(=O)C1CCC(=O)N1Cc1ccc(C)cc1 (configuration not stated)
→ >57 | -3%
CC1=C(C(=O)OCc2ccccc2)C(c2ccc(C(F)(F)F)cc2)NC(=O)N1CCCCCC(=O)O (configuration not stated)
→ · | 10%

# Other structures:
# Order of results: SmPrx2 inh | LT uptake inh
CCOC(=O)C1=C(C)Nc2nc(SCC)[nH]c(=O)c2C1c1ccncc1 (configuration not stated)
→ >57 | 5%
O=c1oc2c(CN3CCOCC3)c(O)c(Cl)cc2c2c1CCCC2
→ >57 | 26%
NC(=O)c1cc(-c2ccccc2)nc(N2CCOCC2)n1
→ · | -12%
O=C(Cn1ncnn1)OCc1ccccc1Cl
→ >57 | 11%
N#Cc1nc(Cc2cccc3ccccc23)oc1NCC1CCCO1 (configuration not stated)
→ >57 | -3%
COc1cc(-c2noc(CCC(N)=O)n2)cc(OC)c1OC
→ >57 | 9%
CN(C)CCCNc1cc(Cl)c(S(=O)(=O)N2CCCCC2)cc1C(=O)O
→ >57 | 4%
CCC(=O)Nc1ccc(NC(=O)c2ccccn2)cn1
→ >57 | 17%
CCOC(=O)c1oc2ccccc2c1NC(=O)c1ccc2c(c1)OCO2
→ >57 | -3%
CCN(CC)CCCNC(=O)N[C@@H](Cc1ccccc1)C(=O)O
→ >57 | -3%
O=C(c1ccco1)N1CCC(c2nc(-c3ccccc3Cl)no2)CC1
→ >57 | -14%
CCCC(=O)Nc1ccc(N2CCOCC2)cc1
→ >57 | 0%
O=C(O)c1cc(Cl)c(Cl)cc1C(=O)N1CCOCC1
→ · | -4%
O=C(NC1CC2CCCC(C1)N2C(=O)NC1CCCCC1)c1ccc(F)cc1 (configuration not stated)
→ >57 | -5%
COc1ccccc1N1CCN(CC(=O)Nc2cccc(F)c2)CC1
→ >57 | -13%
COCCCNC(=O)C12CCC(C)(C(=O)C1)C2(C)C (configuration not stated)
→ >57 | -3%
